Screening data from PubChem.
Beta apoptosis = blocks beta cell apoptosis. INS-1E cytokine-induced death, ATP luminescence, 48 h; percent of positive-control rescue, neutral wells zero. hit rate 0.8% among 300,000. protection from apoptosis, % (no concentration beside the values);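 active = all replicates at 75% or more, or half of them and the mean; inconclusive = half reach 75% but not the mean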;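 note: 0% = cytokine-treated negative control wells and 100% = positive control rescue; higher means more ATP so stronger rescue from cytokine killing; wells of about 40 µL received 100 nL stock; the first replicate is given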
Calb FLC = affects C. albicans growth with fluconazole; C. albicans CaCi-2 (fluconazole-resistant clinical isolate) + fluconazole, Alamar Blue growth, 48 h; growth inhibition, % (concentration not given with the values); hit rate 0.57% among 300,000;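 active = most replicates above 75%; inconclusive = exactly half above 75%; inactive = most below 75%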;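 note: all wells also contain fluconazole at 8 µg/ml as a sub-toxic cotreatment; 0% = median of DMSO wells and 100% = median of geldanamycin control wells; wells of about 8 µL received 7.5 nL stock; the first replicate is given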
T cruzi repl = T. cruzi replication inhibition; inhibition, % (concentration not given with the values); T. cruzi beta-gal in NIH3T3, luminescence, 90 h; hit rate 1.4% among 300,000;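 active = mean inhibition across valid replicates above about 55%, limit read from the data; inconclusive = mean below that limit but half or more replicates reach it; inactive = mean below it, under half of replicates reach it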;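 note: signal also drops with host cell toxicity which is not excluded here; 0% = plate median of DMSO wells and 100% = zero luminescence signal; higher percent means less beta-gal luminescence so fewer parasites; stock transfer was 50 nL into about 50 µL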
RanGTP-Impb inh = inhibitors of RanGTP-importin-beta interaction, primary screen, biochemical, FRET, CFP-Ran, YFP-importin-beta, homogeneous; inhibition, % (test concentration not listed); hit rate 1.1% among 300,000; cell-free CFP-Ran/YFP-importin-beta FRET ratio; AID 2216;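 active = most replicates above 15%; inconclusive = exactly half above 15%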;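 note: 0% = DMSO wells and 100% = Ran loaded with GDP instead of GTP; wells of about 40 µL received 100 nL stock; the first replicate is given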
Ecoli rRNA inh = inhibits bacterial ribosomal RNA function over humanized ribosomes. GFP signal change (wild-type ribosome), % (concentration not given with the values). AID 720706. hit rate 1.6% among 350,000. E. coli WT GFP vs humanized-ribosome RFP mutants, fluorescence, 24 h; active compounds read low; DMSO median 0, no signal -100;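 active = significant combined selectivity score with lowered wild-type GFP, culture density cut under 30%, mutant RFP and density less affected; inactive = any of these conditions unmet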; note: one replicate is shown; some compounds called inactive have numbers as strong as hits
AF4-AF9 inh = blocks AF4 peptide binding to human AF9. P42568. AlphaScreen, biotin-AF4 peptide binding to FLAG-AF9. inhibition, % at 10 µM. hit rate 0.47% among 350,000. AID 651704;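 active = every replicate reaching a set inhibition limit, whatever the replicate mean, cut at about 25% in these data; inconclusive = mean inhibition reaches that limit but some replicates miss it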;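 note: 0% = plate neutral control median and 100% = total signal loss; the record names both 10 and 1 µM as test concentration; the first replicate is given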
Target sequence (P42568 whole entry, looked up): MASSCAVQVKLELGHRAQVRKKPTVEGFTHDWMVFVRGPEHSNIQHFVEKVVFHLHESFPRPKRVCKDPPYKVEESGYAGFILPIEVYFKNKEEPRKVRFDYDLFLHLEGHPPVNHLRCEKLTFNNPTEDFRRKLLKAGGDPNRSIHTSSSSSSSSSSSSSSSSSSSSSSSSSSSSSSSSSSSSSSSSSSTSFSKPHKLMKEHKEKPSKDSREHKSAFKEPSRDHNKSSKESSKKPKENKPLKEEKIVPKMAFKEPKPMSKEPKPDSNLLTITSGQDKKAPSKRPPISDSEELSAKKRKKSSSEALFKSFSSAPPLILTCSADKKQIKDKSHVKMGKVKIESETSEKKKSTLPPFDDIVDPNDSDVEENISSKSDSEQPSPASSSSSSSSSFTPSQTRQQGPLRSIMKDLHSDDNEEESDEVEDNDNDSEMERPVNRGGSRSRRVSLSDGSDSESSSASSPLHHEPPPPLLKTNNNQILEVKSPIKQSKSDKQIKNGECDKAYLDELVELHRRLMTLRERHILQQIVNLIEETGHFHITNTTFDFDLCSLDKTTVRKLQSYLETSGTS
FGF22 binding = binders of recombinant human FGF22 by thermal shift; Q9HCT0; SYPRO orange fluorescence; percent of sucrose octasulfate shift, DMSO zero; calls only at 9.99 µM; hit rate 1.5% among 340,000; AID 651658;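 active = melting point raised past a set limit in the mean and every replicate; inconclusive = no clear call; three in four hits are not shown here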
Target sequence (Q9HCT0 whole entry, looked up): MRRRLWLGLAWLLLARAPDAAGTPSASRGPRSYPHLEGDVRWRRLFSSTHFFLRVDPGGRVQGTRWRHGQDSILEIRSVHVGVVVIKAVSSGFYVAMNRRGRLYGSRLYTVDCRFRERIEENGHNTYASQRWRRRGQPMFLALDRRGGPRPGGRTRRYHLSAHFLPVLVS
ALR inh = human ALR oxidase inhibition via reduced H2O2. hit rate 3.8% among 290,000. inhibition, % (concentration not given with the values). purified ALR, DTT oxidation, H2O2 HRP-luminol luminescence;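 active = mean and each replicate at 75% or more; inconclusive = only one of the two met; inactive = neither met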;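 note: stock transfer was 7.5 nL into about 7.5 µL; 0% = neutral wells and 100% = wells with inactivated enzyme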
Target sequence (P55789 whole entry, looked up): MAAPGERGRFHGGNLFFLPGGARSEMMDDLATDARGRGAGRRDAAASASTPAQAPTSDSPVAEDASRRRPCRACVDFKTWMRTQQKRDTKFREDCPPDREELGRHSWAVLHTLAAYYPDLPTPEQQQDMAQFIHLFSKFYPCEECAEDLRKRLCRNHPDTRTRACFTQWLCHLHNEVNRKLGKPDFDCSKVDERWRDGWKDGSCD
Ecoli rRNA inh OD600 = further read-out of Ecoli rRNA inh, marked with its call; OD600 change, %; measured here: OD600 growth;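 optical density of the mix in the first replicate; 0 = DMSO median and -100 = no signal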
Ecoli rRNA inh RFP = recorded beside Ecoli rRNA inh, whose call it bears; RFP signal change, %; measured here: RFP humanized mutant strains;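 first replicate; 0 = DMSO median and -100 = no signal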
* marks the source's active call; other numbers are inactive results; i = inactive; u = inconclusive; x = no result given; & = joins results of further samples. Some of the compounds tested, so the mix of outcomes need not match the whole.

SMILES	Beta apoptosis	Calb FLC	T cruzi repl	RanGTP-Impb inh	Ecoli rRNA inh	Ecoli rRNA inh OD600	Ecoli rRNA inh RFP	AF4-AF9 inh	FGF22 binding	ALR inh
O=C(NCCOc1nc(N2CCOCC2)nc(N2CCOCC2)n1)Nc1ccccc1	-2	-2	-12	2.7	x	x	x	x	x	x
O=C1C(=O)N(CCCn2ccnc2)C(c2cccnc2)/C1=C(/O)c1ccc(F)cc1 (stereo not given)	-1	0	-10	1.8	x	x	x	x	x	-6
Cn1nnnc1SCC(=O)c1ccco1	0	-21	-27	0.0	x	x	x	x	x	39
O=S1OC(c2ccccc2)c2cc(Cl)ccc21 (stereo not given)	-5	3	-16	-2.9	-15*	5.4*	-4.2*	-1.1	i	u
COc1cc(NC2=Nc3cccc4cccc2c34)cc(OC)c1OC	46	6	-4	3.2	-13	-19	-10	21	i	37
C[C@@H]1CC=C[C@H]2[C@H]1C(=O)N(Cc1ccccc1)[C@H]2c1ccc2ccccc2c1	18	-11	15	-0.9	3	-4	9.2	-0.7	i	-8
COc1cc(OC)cc(C(=O)NNC(=O)CN2C(=O)NC(C)(c3ccccc3)C2=O)c1 (stereo not given)	3	6	-4	x	-1	2	-0.7	-1.1	i	-1
CN(C)S(=O)(=O)c1ccc(C(=O)NCC(=O)Nc2ccc(F)c(F)c2)cc1	0	12	-7	3.0	7	22	-0.5	-1.9	i	-4
CCOCCCN1CC(C(=O)NCc2ccc3c(c2)OCO3)CC1=O (stereo not given)	1	-4	-8	1.5	15	12	-0.1	-1.3	i	-41
C/C(=N\NC(=O)c1cc(C)oc1C)c1ccc2c(c1)OCO2	-14	-8	-2	3.0	8	-3	3.1	-4.1	i	-17
COc1ccc(N(C(=O)c2ccc(F)cc2)C2=CC3CCC(C2)N3C)cc1 (stereo not given)	-3	-6	0	-0.4	x	x	x	x	x	-30
Cc1ccc(-n2nc(C)c3c(-c4cccs4)c(C#N)c(N)nc32)cc1	x	-5	48	0.2	x	x	x	x	x	-1
CCC/C(C#CCCN1C(=O)c2ccccc2C1=O)=C1/c2ccccc2C(=O)N1c1ccccc1	-8	x	x	x	-4	9	-2.7	1.7	i	-5
Cc1ccc(C)c(S(=O)(=O)N2CCN(C(=O)CCC(=O)NCc3ccc(Cl)cc3)CC2)c1	-10	x	x	x	-12	-38	-1.9	0.1	i	-6
CCC(C)Oc1cc(-c2ccnc(Nc3cccc(Cl)c3)n2)ccn1 (stereo not given)	-8	-11	57*	0.1	18	15	-5.7	1.1	i	-10
N=C1/C(=C\c2ccc(Br)o2)C(=O)N=C2SC(CC(=O)N3CCCCC3)=NN12	-1	0	-8	4.7	6	14	3.2	-15	i	97*
O=C(CN1C(=O)COc2ccccc21)c1cccc(Cl)c1	-3	-13	17	2.6	x	x	x	x	x	-3
O=C(Nc1ccc(F)cc1F)N1CCCCCC1	-5	0	-17	1.3	15	18	1.7	-1.5	i	-16
O=C(Nc1cccnc1)Nc1ccc(F)c(Cl)c1	5	-7	5	-4.2	x	x	x	x	x	-2
Cc1nc(C)c(/C(O)=C\c2nc3ccc([N+](=O)[O-])cc3oc2=O)o1	3	19	-10	0.9	11	1	9.6	0.9	i	99*
CCOc1ccc(N2C(=O)CC(Sc3n[nH]c(-c4ccccc4)n3)C2=O)cc1 (stereo not given)	-8	-57	3	-2.5	-1	4	0.3	-3.0	i	99*
O=C(COc1ccccc1)N1CCN=C1SCc1ccccc1F	-6	-4	12	0.4	-3	-4	-3.9	-1.5	i	-11
C=CCOc1nc(-c2ccncc2)nc2ccccc12	-9	-3	-7	-0.4	x	x	x	x	x	-5
CC1=NN(c2ccccc2)C(=O)/C1=C/c1c(O)n(-c2ccc(F)cc2)[nH]c1=O	3	1	-21	10	x	x	x	x	x	15
COc1ccc(CN(C)S(=O)(=O)c2nnc(NC(=O)c3ccccc3Br)s2)cc1	4	0	-7	-2.4	-38	-46	-6.9	-5.2	i	-6
CCc1nnc(NC(=O)C2CC(=O)N(CCc3ccc(F)cc3)C2)s1 (stereo not given)	-3	12	-9	0.6	22	8	6.8	-3.4	i	7
Cc1ccc(C)c(CN2C(=O)COc3ccc(C(=O)c4ccccc4C(=O)O)cc32)c1	x	-1	26	-8.1	-16	-25	-0.9	1.4	i	2
CC1CCc2nc(NC(=O)Nc3ccc4c(c3)OCO4)sc2C1 (stereo not given)	-6	7	11	0.4	-33	-37	-17	-1.4	i	-3
C=CCS/C(=N\n1cnc2ccccc2c1=O)N(CC)CC	-13	-4	-4	4.1	x	x	x	x	x	-13
CC1Oc2ccccc2OC1(O)c1ccc2ccccc2n1 (stereo not given)	-6	-1	-9	2.7	-25	-26	-18	-1.4	i	1
CCn1c(SCC(=O)NC2CC2)nnc1-c1csc(C)c1	-4	-6	-8	4.8	13	10	-2.6	-1.0	i	1
COc1ccc(CC(=O)OCC(=O)NC(=O)NC2CCCC2)cc1	2	x	x	x	3	0	4.1	-3.0	i	0
CCCNC(=S)NC1CC2CCCC(C1)N2Cc1ccc(F)cc1 (stereo not given)	-1	-7	1	0.2	x	x	x	-4.3	i	x
O=C(COC(=O)c1ccc(S(=O)(=O)N2CCCC2)cc1)Nc1cccc(F)c1	-3	x	x	x	x	x	x	1.2	i	-2
COCc1cc(C)n(CC(=O)N/N=C/c2ccc(-c3ccc(Cl)c(C(=O)O)c3)o2)c(=O)c1C#N	-9	-23	-23	-2.4	x	x	x	x	x	5
O=C1C2C3c4ccccc4C(c4ccccc43)[C@@H]2C(=O)N1c1ccccn1 (stereo not given in full)	x	-4	-4	3.2	x	x	x	1.2	i	-1
CC(C)c1ccc(NC(=O)CN(Cc2ccccc2)S(C)(=O)=O)cc1	2	-38	5	-0.1	x	x	x	x	x	-13
O=C(CCC1CCCN(C(=O)C2=CCCC2)C1)N1CCN(c2ccccn2)CC1 (stereo not given)	-4	-5	39	-1.6	4	0	0.0	-0.9	i	10
CC(Nc1ccc2c(c1)OCCO2)C(=O)Nc1ccc2c(c1)OCO2 (stereo not given)	-1	-19	x	x	4	0	58	0.8	i	96*
CC1CCCC(C)N1C(=O)Cn1cnc2cc([N+](=O)[O-])ccc2c1=O (stereo not given)	2	7	9	u	16	15	-1.3	0.4	i	-17
COc1ccc(-c2c(-c3cc(OC)cc(OC)c3)n(C)c3ccc(-c4ccc(N(C)C)nc4)cc23)cc1	6	x	x	x	2	9	-4.2	1.3	i	-12
Cn1nnnc1SCC(=O)Nc1ccc(Cl)c(S(=O)(=O)N2CCOCC2)c1	-7	-10	-16	u	2	5	-2.8	-0.3	i	-5
O=S(=O)(Nc1ccc(-n2cccc2)cc1)c1ccc(Cl)cc1Cl	4	4	2	0.2	x	x	x	x	x	-3
CN(N)c1nc2ccccc2nc1C(F)(F)F	-3	-26	-3	-0.7	5	8	1.3	0.7	i	0
COc1ccc(C(=O)NCC(=O)OCn2nnc3ccccc3c2=O)cc1OC	6	-6	-8	5.0	x	x	x	x	x	24
COc1cc(-c2nc3ccccn3c2NCC2CCCO2)ccc1O (stereo not given)	1	8	-6	2.8	x	x	x	x	x	99*
C(=C\c1ccccc1)/CN1CCN(C(c2ccccc2)c2ccccc2)CC1	x	x	-2	-3.9	-7	-12	-0.1	1.7&2.8	i	x
CCOc1ccc(NC(=O)c2csc3c2CCCC3)cc1	x	-11	4	-0.2	4	20	-0.5	-1.6	i	-10
Cc1cccc(C(=O)NCc2nnc(SCC(=O)Nc3nncs3)n2C)c1	-4	18	-10	5.4	5	25	-0.7	-29	i	-1
c1ccc2c(c1)nc(-c1ccncc1)n1nnnc21	4	-1	5	u	x	x	x	x	x	-10
COC(=O)CSC1=C(C#N)C(=O)NC2(CCCCC2)S1	-2	22	-12	-1.2	1	19	-3.3	-16	i	60
c1ccc(-c2cc(N3CCCCCC3)n[nH]2)cc1	-2	-21	22	u	x	x	x	x	x	98*
Cc1c2c(nc3c(C)cccc13)OC(C)C2 (stereo not given)	-9	-1	10	u	x	x	x	-0.4	x	-8
CNS(=O)(=O)c1cccc(C(=O)NCC2(N3CCCCC3)CCCCC2)c1	-2	-8	14	-2.6	4	9	0.6	-2.4	i	-1
CCCC(c1nnnn1C(C)(C)C)N1CCN(Cc2ccccc2OC)CC1 (stereo not given)	-1	-7	-2	6.8	3	-3	-0.2	2.6	i	-5
S=c1nc[nH]c2c1sc1nc(-c3ccccc3)c3c(c12)CCCC3	4	44	-3	-2.7	16	-7	-2.0	0.6	i	13
O=C(Nc1cccc2ccccc12)c1ccccc1	-5	-10	-1	1.5	6	-2	-1.6	1.1	i	-12
COc1ccc2[nH]c(=O)c(CN(C(=O)c3cccnc3)c3cccc(C)c3)cc2c1	4	-2	1	4.7	2	1	-0.6	-7.1	i	-4
Cc1nc2c(-c3ccc(F)cc3)c(C)nn2c(C)c1CCC(=O)NCCN1CCOCC1	1	-1	-4	3.7	-6	-5	-0.2	-0.2	i	-9
CC(=O)c1cccc(OCC(=O)Nc2cc(Cl)ccc2-n2cncn2)c1	0	0	6	1.7	8	3	1.6	-0.4	x	0
Going on with the list:
SMILES	Beta apoptosis	Calb FLC	T cruzi repl	RanGTP-Impb inh	Ecoli rRNA inh	Ecoli rRNA inh OD600	Ecoli rRNA inh RFP	AF4-AF9 inh	FGF22 binding	ALR inh
O=C(CNc1ccc(Oc2ccccc2)cc1)N1CCOCC1	0	16	-3	-8.7	x	x	x	x	x	-9
COCCOC(=O)c1c(C)oc2ccc(OCc3cc(C(=O)OC)oc3C)cc12	-1	13	-2	-3.2	x	x	x	-2.1	x	-4
CC(C)Cn1c(N)c(C(=O)COC(=O)c2cc(F)cc(F)c2)c(=O)n(C)c1=O	-6	-22	-2	-5.6	-7	-7	-2.6	1.3	i	-1
CCOC(=O)CN1C(=O)CN(c2ccc(C)c(C)c2)C1=O	-6	3	-2	u	x	x	x	x	x	-3
Cc1noc(C)c1COc1ccc(C(=O)N2CC(C)CC(C)C2)cc1 (stereo not given)	3	x	x	x	-6	-19	-0.1	-0.3	i	0
C=C(C(=O)Oc1c(C(C)(C)C)cccc1C(C)(C)C)c1ccccc1	11	x	x	x	8	9	-1.1	-2.1	i	1
CCOC(=O)C1CCN(S(=O)(=O)c2c(Cl)ccc3nonc23)CC1	48	1	64*	-0.8	0	1	-0.4	-6.1	i	-3
COc1ccc(C(=O)NNC(=O)C23CC4CC(CC(C4)C2)C3)c(OC)c1	-7	5	0	3.4	0	-3	-1.0	5.1	i	1
Cc1ccc(N2C(=O)C(F)(F)C2c2ccccc2)cc1 (stereo not given)	-5	33	-7	3.6	16	16	1.5	-2.5	i	-12
CCc1cc2c(=O)c(-c3nc4ccccc4n3C)c(C)oc2c(CN2CCCCC2)c1O	5	-10	1	1.2	0	-3	-0.3	-11	i	x
